Vaccinia mCherry: vaccinia inhibition (mCherry reporter); Vaccinia virus mCherry reporter infection, fluorescence; about a quarter of the inactives have no number; hit rate 0.63% among 310,000; Potency, µM (series often up to 36.5 µM), inactives show top-dose activity change, negative = inhibition, usual class: inhibitors; active = well fitted inhibition curve with a large enough effect; inconclusive = small, poorly fitted or top-dose-only effect; inactive = no such curve, though single readings can be large or run the other way; tested in A549 cells; also: nearly all actives have a fitted effect of over 35% in size; inactives centre near -10
Vaccinia Venus: vaccinia inhibition (Venus reporter); Potency, µM (top dose mostly 36.5 µM), without a hit: at the top dose activity change, negative = inhibition, actives largely listed as inhibitors; Vaccinia virus Venus reporter expression, fluorescence; hit rate 0.46% among 330,000; AID 720580; active means well fitted inhibition curve with a large enough effect; inconclusive means small, poorly fitted or top-dose-only effect; inactive means no such curve, though single readings can be large or run the other way; tested in A549 cells; also: nearly all actives have a fitted effect of over 30% in size; inactives centre near -10
Numbers without * were called inactive; i = inactive; ? = inconclusive; . = no result given; [ ] = dose if it differs, or a comment. % is scaled to controls: 0 for no effect and ±100 for the full control effect; potency is read from the fitted curve at half-maximal effect. This is a random part of the collection; about 0.82% have a hit in one of these screens.

SMILES	Vaccinia mCherry	Vaccinia Venus
CC(=O)N1CCCc2cc(S(=O)(=O)N3CCC(C(=O)NC4CCC(C)CC4)CC3)ccc21 (stereo not given)	2%	-10%
CCOc1ccccc1COC(=O)c1cccc(-n2cnnn2)c1	-4%	-25%
COc1ccc(C2C3=C(CCCC3=O)Nc3n[nH]c(C)c32)cc1OC (stereo not given)	-19%	-14%
Cc1oc2ncn(C)c(=O)c2c1C(=O)Nc1ccccn1	0%	4%
CCCn1c(-c2cccs2)nc2ccccc21	-25%	-11%
CCN(CC)C(=O)Nc1ccccc1C	.	-4%
O=C(c1ccccc1Cl)N1CCn2c1nc1ccccc12	-9%	-9%
COc1ccc(CN2C(=O)NC(C)(c3ccc(C)cc3)C2=O)cc1F (stereo not given)	-16%	-15%
COc1cc(OC)c(CN2CCc3c([nH]c4ccccc34)C2)cc1Br	-24%	-7%
CCOC(=O)CNC(=O)N(C)[C@H]1C[C@H]2c3[nH]c4ccccc4c3CCN2C(=O)[C@H]1[C@H](C)O	i	-7%
Cc1ccc(C)c(NC(=O)CSc2nc(=O)n(CCN3CCOCC3)c3c2CCC3)c1	-1%[7.34 µM]	-5%[7.34 µM]
COc1ccc(NC(=O)C23CC4CC(C2)CC(c2ccccc2)(C4)C3)c(OC)c1	-8%	-16%
O=C(COc1ccccc1)NCC(c1cccs1)N1CCOCC1 (stereo not given)	i	-14%
COc1ccc(CNC(=O)C(=O)NCCC2CCCCN2S(=O)(=O)c2cccs2)cc1 (stereo not given)	-29%	-18%
CN(C(=O)CSc1nc2ccccc2n1CC(=O)N(C)C1CCCCC1)c1ccccc1	-14%	-5%
O=C(NC1CCCCC1)c1ccc2ccccc2c1O	-6%	7%
Cc1nn(Cc2c(F)cccc2Cl)c(C)c1NC(=O)C1CC1	i	-11%
O=C(Cn1cc2c(n1)CCCC2)Nc1ccccc1Cl	-6%	0%
O=C(COc1ccccc1)N1CCN(C2CC3CCC2C3)CC1 (stereo not given)	-15%	-9%
COC(=O)c1ccccc1NC(=O)CSc1nc2cccnc2n1C	i	-11%
COc1cccc(C2C(C#N)=C(N)Oc3cc(C)[nH]c(=O)c32)c1OC (stereo not given)	.	-15%
CCCCCCCCCCCCCCCCCCN(CCCCCCCCCCCCCCCCCC)c1ccc(/C=C/c2ccnc3ccccc23)cc1	i	-10%
O=C(NCc1ccc(Cl)cc1)c1ccc2c(c1)N(Cc1ccccc1F)C(=O)c1ccccc1S2=O (stereo not given)	-10%	-16%
COc1cc(OC)c(N(C)S(=O)(=O)c2cccc(C(=O)NCc3cccs3)c2)cc1Cl	i	?
CCOc1ccc2nc(SCC(=O)Nc3ccc4c(c3)OCCO4)[nH]c2c1	-22%	-14%
Going on with the list:
SMILES	Vaccinia mCherry	Vaccinia Venus
O=c1c(-c2ccc(Cl)cc2)[n+]([O-])c2ccccc2n1O	.	-10%
CC1(C(=O)NS(=O)(=O)c2ccccc2C(F)(F)F)CCN1C(=O)CC1CCCCC1 (stereo not given)	13%	-1%
CC(C)(C)SCCSC1=CC(=O)CC(c2ccccc2)C1 (stereo not given)	-15%	-13%
Cc1cc(NC(=O)C2CCCCC2)n(-c2nc3ccccc3[nH]2)n1	.	?
CCOc1ccc(Nc2ccc(N3C(=O)CCC3=O)cc2[N+](=O)[O-])cc1	?	-10%
O=C1CCN(CCCc2ccccc2)CCN1[C@H](CO)c1ccccc1	-1%	-21%
COc1cccc(O)c1O	6%	39%[activator]
COc1cc2cncnc2cc1OCCCCC(N)=O	-7%	-18%
O=C(O)C1CC(c2cccc(Br)c2)=NO1 (stereo not given)	-2%	-11%
COC(=O)c1nc(NC(=O)c2cc(OC)c(OC)c(OC)c2)n[nH]1	-6%	13%
CC(C)(C)c1nc2ccc(NS(=O)(=O)c3ccc(F)c(F)c3F)cc2[nH]1	-8%	-13%
COc1ccc(N2CCN(C3CCCN(S(=O)(=O)c4ccccc4)C3)CC2)cc1 (stereo not given)	-1%	-16%
NC(=O)Nc1ccc(/C=C/c2ccnc3ccccc23)cc1	21%	-15%
COCCNC(=O)C1(C)CCCN(C(=O)c2cccc(C#N)c2)C1 (stereo not given)	3%	-5%
Cc1cccc(OCc2nnc(SCc3nc4ccccc4c(=O)[nH]3)o2)c1	.	9%
Cc1cc(C)cc(NC(=O)c2ccc(S(=O)(=O)NCc3cccnc3)cc2)c1	-14%	-3%
CCN1C(=O)/C(=C/N2CCc3ccccc32)SC1=S	-13%	-7%
CC1CCc2sc(C(=O)NCC3CCCO3)cc2C1 (stereo not given)	0%	2%
CC(C)c1ccc(N(CC(=O)NCc2ccco2)C(=O)CCC(=O)Nc2ccccn2)cc1	-13%	-4%
CC1(C)CC(=O)c2cnc(NC(=O)CSc3nc4ccccc4o3)nc2C1	.	-16%
CCCCn1c(SCN2C(=O)c3ccccc3C2=O)nc2cc(S(N)(=O)=O)ccc21	.	-13%
O=C(COc1coc(CN2CCc3ccccc3C2)cc1=O)Nc1ccc([N+](=O)[O-])cc1	i	-12%
CC1=CC(C)=Nc2ccc(C)cc2N1	.	-9%
Cc1cc2ncn(CC(C)C)c2cc1C	i	-13%
CCN(CC)S(=O)(=O)c1cc(NC(=O)CSCc2c(C)noc2C)ccc1C	-6%	-3%

7 entries from above, with values under each structure.
Results follow in this order: Vaccinia mCherry	Vaccinia Venus
COc1ccc(N2CCN(C3CCCN(S(=O)(=O)c4ccccc4)C3)CC2)cc1 (stereo not given)
  -1%	-16%
Cc1cc(NC(=O)C2CCCCC2)n(-c2nc3ccccc3[nH]2)n1
  .	?
O=C(COc1coc(CN2CCc3ccccc3C2)cc1=O)Nc1ccc([N+](=O)[O-])cc1
  i	-12%
CC1(C)CC(=O)c2cnc(NC(=O)CSc3nc4ccccc4o3)nc2C1
  .	-16%
CC1CCc2sc(C(=O)NCC3CCCO3)cc2C1 (stereo not given)
  0%	2%
Cc1cccc(OCc2nnc(SCc3nc4ccccc4c(=O)[nH]3)o2)c1
  .	9%
O=C(O)C1CC(c2cccc(Br)c2)=NO1 (stereo not given)
  -2%	-11%

More structures
SMILES	Vaccinia mCherry	Vaccinia Venus
O=c1[nH]c2ccccc2n1C1CCN(C(CCc2ccccc2)c2nnnn2C2CCCC2)CC1 (stereo not given)	?	?
O=C(NNC(=O)[C@H]1CC=CC[C@H]1C(=O)O)c1ccc(Cl)cc1Cl	-20%	-14%
O=C1C2CCC(C2)C1CN1CCOCC1 (stereo not given)	i	-5%
N/C(COc1ccc(Cl)cc1Cl)=N\NS(=O)(=O)c1ccccc1	i	-11%
CCc1ccccc1N(CC(=O)NCc1ccco1)C(=O)c1snc(C(N)=O)c1N	?	-19%
O=C(C1CCCN(S(=O)(=O)c2ccc(F)cc2)C1)N1CCCC1 (stereo not given)	.	-6%
COc1ccc(C=CC(=O)c2ccc(OC)c(OC)c2)cc1O	?	10µM*
Cc1cc(-c2cc(C(=O)Nc3ccccc3)on2)nc(NCC2CC2)n1	-21%	-21%
Clc1ccc(-c2cn3c(n2)-c2ccccc2C3)cc1Cl	-8%	-22%
CCOC(=O)c1c(S(=O)(=O)N2CCCC(C(=O)NCc3cccc(C)c3)C2)c(C)n(C)c1C (stereo not given)	-13%	-14%
O=C(c1cccnc1Cl)N(Cc1ccccc1)Cc1ccccc1	-15%	-13%
CC/C(=N\Nc1ccccc1[N+](=O)[O-])c1ccc(O)cc1	?	?
CCC(=O)Nc1ccc(C(=O)Nc2ccc3c(c2)C(=O)N(CC2CCCO2)C3=O)cc1 (stereo not given)	.	-17%
CCC(C)C(=O)Nn1c(C2CC2)nc2cc(OC)c(OC)cc2c1=O (stereo not given)	-10%	14%
COc1ccccc1S(=O)Cc1ccc(C(=O)NC2CCCC2)o1 (stereo not given)	i	-12%
Cc1ccc(C)c(NC(=O)CCC(=O)NNC(=O)c2cccc([N+](=O)[O-])c2)c1	-5%	-7%
O=C(NCCC(=O)N1CCc2ccccc21)c1ccco1	-7%	-8%
Cc1cc2[nH]c3ccccc3c2c(C)n1	-2%	-29%
O=C(/C=C/c1ccccc1)NC(=S)NNC(=O)c1cnccn1	-23%[7.34 µM]	-16%[7.34 µM]
O=C(Cn1nnc(-c2ccc(S(=O)(=O)N3CCCC3)cc2)n1)NCC1CCCO1 (stereo not given)	?	-11%
OC(COc1ccccc1)CN1CCCCC1 (stereo not given)	-28%	0%
O=C(C1CCCC1)N1CCC(CC2CC(c3ccc(Cl)cc3)=NO2)(C(=O)NCC2CCCCC2)CC1 (stereo not given)	-12%	-23%
N#C/C(=C\c1ccc(Cl)cc1)c1nc(-c2ccco2)cs1	-21%	-9%
CCN(CC)S(=O)(=O)c1ccc(NC(=O)C2COc3ccccc3O2)cc1 (stereo not given)	.	?
CCN(C[C@H]1N[C@@](Cc2ccccc2)(C(=O)OC)[C@H]2C(=O)N(C)C(=O)[C@@H]12)S(=O)(=O)c1ccccc1	-10%	0%

Reprinted from the part before: 2 compounds, then new ones.
SMILES	Vaccinia mCherry	Vaccinia Venus
CCN(CC)S(=O)(=O)c1ccc(NC(=O)C2COc3ccccc3O2)cc1 (stereo not given)	.	?
CCN(C[C@H]1N[C@@](Cc2ccccc2)(C(=O)OC)[C@H]2C(=O)N(C)C(=O)[C@@H]12)S(=O)(=O)c1ccccc1	-10%	0%
O=C(O)C(Cc1ccccc1)N1C(=O)C2CCCCC2C1=O (stereo not given)	-1%	-11%
CC1(C)N=C(N)N=C(N)N1c1ccc(OCC(=O)Nc2ccccc2)c(Cl)c1	4µM*	?
Cc1cccc(Cn2c(COc3ccccc3)nc3ccccc32)c1	6%	-2%
O=C(CSc1ncccn1)N1CCc2ccccc2C1	-2%	-12%
Cc1ccc(N2CC(C(=O)Nc3cc(S(=O)(=O)N4CCCCC4)ccc3C)CC2=O)cc1 (stereo not given)	?	?
COc1cc(OC)cc(C(=O)Nc2nc(CC(=O)NCc3ccc(F)cc3)cs2)c1	?	-30%
Cc1ccc(C)c2sc(N3CCN(C(=O)C(C)(C)C)CC3)nc12	-7%	-10%
O=C(c1ccco1)N1CCN(C(=O)C(c2ccccc2)c2ccccc2)CC1	-21%	-13%
CCOC(=O)c1c(C)oc2nc(C)nc(Nc3cc(C)cc(C)c3)c12	i	-9%
COc1cccc(-c2cc(C(F)(F)F)n3nc(N)nc3n2)c1	.	-16%
COc1ccc(N=C2CC(C)(C)CC(=O)/C2=C(/O)c2ccccc2)cc1	i	-10%
COc1cc(NC(=O)Nc2cccc([N+](=O)[O-])c2)cc(OC)c1	-18%	-18%
COc1cc(OC)cc(OC(=O)C2CCN(C(=O)c3ccc(F)cc3)CC2)c1	-19%	-16%
Cn1ncc([N+](=O)[O-])c1C(=O)N/N=C/c1ccc(F)cc1	i	-7%
O=C(Cn1c(=S)[nH]c2ccccc2c1=O)N1CCc2ccccc2C1	-3%	-13%
NC(=O)C1CCN(c2ncccc2[N+](=O)[O-])CC1	i	10%
CCSc1nsc(NC(=O)Nc2cccc(C(C)=O)c2)n1	-3%	-16%
CCN(CC)c1ccc(/C=N/NC(=O)c2cccc(S(=O)(=O)Nc3ccccc3OC)c2)c(O)c1	2.5µM*	?
COc1ccc(C(=O)N[C@H](C(=O)OCc2nc3ccsc3c(=O)[nH]2)C(C)C)cc1	i	-4%
O=C(CN1C(=O)NC2(CCCc3ccccc32)C1=O)c1ccc(F)c(F)c1 (stereo not given)	-1%	0%
O=S(=O)(O)c1cc(O)c2ccc(Nc3ccccc3)cc2c1	?	-5%
COCCNC(=O)C(c1cccs1)N(C(=O)Cn1nnc2ccccc21)c1ccccc1 (stereo not given)	-26%	-17%
Cc1nnc(N(C)C(=O)Cc2ccc3c(c2)OCO3)s1	-8%	-10%
Cc1ccc(C2C=C(c3ccccc3)Nc3ncnn32)cc1 (stereo not given)	i	-14%
CN(C)c1ccc(/C=C/c2cc(Cl)nc3ccccc23)cc1	i	-17%
Additional compounds
SMILES	Vaccinia mCherry	Vaccinia Venus
Cc1ccc(S(=O)(=O)Nc2ccc(NC(=O)/C=C/C(=O)O)cc2)cc1	-18%	-7%
O=C(NCc1ccc(Cl)cc1)c1ccc(N2CCCC2=O)cc1	i	-10%
Cc1cccc(C)c1N(CC(=O)NCc1ccccc1)C(=O)c1csnn1	-4%	-6%
C[C@H](CO)N1C[C@H](C)[C@H](CN(C)C(=O)NC2CCCCC2)Oc2cc(-c3cccnc3)ccc2S1(=O)=O	-3%	-12%
COc1ccc(CCNC(=O)c2ccc3c(c2)N(Cc2ccc(Cl)cc2)C(=O)c2ccccc2S3)cc1OC	-21%	-16%
COc1ccc(NC(=O)COC(=O)C2COc3ccccc3O2)cc1 (stereo not given)	i	-6%
CN1CCN(C(=O)C(=O)Nc2c3c(nn2-c2ccc(F)cc2)CSC3)CC1	-6%	5%

Full records from above:
Listed for `COc1ccc(NC(=O)COC(=O)C2COc3ccccc3O2)cc1` (stereo not given) = Vaccinia mCherry = i; Vaccinia Venus = -6%
Listed for `O=C(NCc1ccc(Cl)cc1)c1ccc(N2CCCC2=O)cc1` = Vaccinia mCherry = i; Vaccinia Venus = -10%
Listed for `Cc1ccc(S(=O)(=O)Nc2ccc(NC(=O)/C=C/C(=O)O)cc2)cc1` = Vaccinia mCherry = -18%; Vaccinia Venus = -7%

Bioassay records from PubChem BioAssay.
